KCNQ2 pot: potentiators of rat KCNQ2 potassium channel; O88943; CHO-K1 KCNQ2, FluxOR thallium flux fluorescence; stronger effect = higher value; B-score at 10 µM; 310,000 compounds, 0.54% hits; AID 2239;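 active = fluorescence ratio B-score at least 3 SD of library B-scores, with initial fluorescence B-score within 3 SD, cut at about 5.3 in these data; same plate scores as AID 2156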;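 note: B-score of peak minus minimum over baseline fluorescence ratio after K+ and Tl+ stimulus; positive B-score means potentiation of KCNQ2 with more thallium influx and brighter signal; only the inactives scoring about 0 or higher are listed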
Target sequence (O88943 whole entry, looked up): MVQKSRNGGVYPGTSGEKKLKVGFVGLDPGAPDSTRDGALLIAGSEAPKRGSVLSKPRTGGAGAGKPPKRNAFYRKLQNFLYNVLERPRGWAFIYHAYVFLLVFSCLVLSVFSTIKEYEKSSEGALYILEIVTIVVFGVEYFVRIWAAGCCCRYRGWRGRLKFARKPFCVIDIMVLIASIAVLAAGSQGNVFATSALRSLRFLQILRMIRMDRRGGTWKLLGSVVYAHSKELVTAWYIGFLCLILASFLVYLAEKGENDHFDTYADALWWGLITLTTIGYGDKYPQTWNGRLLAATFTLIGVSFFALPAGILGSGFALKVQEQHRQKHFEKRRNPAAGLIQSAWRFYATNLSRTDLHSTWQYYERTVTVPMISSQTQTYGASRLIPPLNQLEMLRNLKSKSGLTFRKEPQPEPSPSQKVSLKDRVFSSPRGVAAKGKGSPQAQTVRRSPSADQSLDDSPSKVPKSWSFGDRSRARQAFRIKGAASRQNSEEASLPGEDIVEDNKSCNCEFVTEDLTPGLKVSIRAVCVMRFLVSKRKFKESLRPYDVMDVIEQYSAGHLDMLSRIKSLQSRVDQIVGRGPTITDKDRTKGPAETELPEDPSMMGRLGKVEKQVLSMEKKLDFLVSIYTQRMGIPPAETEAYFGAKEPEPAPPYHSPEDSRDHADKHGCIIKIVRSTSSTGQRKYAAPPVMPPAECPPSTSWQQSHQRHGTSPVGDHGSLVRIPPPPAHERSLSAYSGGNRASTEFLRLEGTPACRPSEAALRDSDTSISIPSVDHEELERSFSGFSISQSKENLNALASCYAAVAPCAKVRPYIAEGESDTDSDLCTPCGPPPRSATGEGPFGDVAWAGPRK
KCNQ2 pot baseline: recorded beside KCNQ2 pot, whose call it bears; B-score; compound at 10 µM; measured here: initial fluorescence intensity artifact check;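 brightness before thallium and not channel activity; 0 = typical well and far values either way flag optical interference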
Starred values were filed as active, the others as inactive. Only part of the results is shown, so the mix of outcomes need not match the whole.

structure,KCNQ2 pot,KCNQ2 pot baseline
COc1cc(C(CC(=O)N2CCOCC2)c2c(OC)cc(OC)c3ccc(=O)oc23)cc(OC)c1OC (stereo unspecified),1.5,0.62
O=S(=O)(c1ccccc1)N1CCC(O)(CSc2ccccc2)CC1,0.06,-0.33
Cc1c(/C=C/C(=O)c2cccs2)cnn1C,1.5,-0.43
CC1CC(C)CN(C(=O)COC(=O)Cc2ccc(Cl)cc2)C1 (stereo unspecified),0.29,0.69
O=C(O)c1ccccc1C(=O)Nc1nc(-c2ccc3ccccc3c2)cs1,0.01,0.78
O=C(CSc1nnc(SCC(=O)c2ccco2)s1)c1ccco1,0.46,-0.48
CCN(CC)S(=O)(=O)c1ccc(N2CCOCC2)c(NC(=O)C2CC2)c1,1,-0.02
NCc1cc2c3c(c1)CCCN3CCC2,0.28,1
O=S(=O)(c1cccs1)N1CCN(S(=O)(=O)c2cccs2)CC1,0.64,-0.77
COc1cccc(-c2c(C(=O)N/N=C/c3ccc(C)o3)nnn2-c2nonc2N)c1,0.33,0.73

Two neighbouring entries already listed:
structure,KCNQ2 pot,KCNQ2 pot baseline
COc1cc(C(CC(=O)N2CCOCC2)c2c(OC)cc(OC)c3ccc(=O)oc23)cc(OC)c1OC (stereo unspecified),1.5,0.62
O=S(=O)(c1ccccc1)N1CCC(O)(CSc2ccccc2)CC1,0.06,-0.33

Back to the main list with the 4 entries that preceded the break.
structure,KCNQ2 pot,KCNQ2 pot baseline
CCN(CC)S(=O)(=O)c1ccc(N2CCOCC2)c(NC(=O)C2CC2)c1,1,-0.02
NCc1cc2c3c(c1)CCCN3CCC2,0.28,1
O=S(=O)(c1cccs1)N1CCN(S(=O)(=O)c2cccs2)CC1,0.64,-0.77
COc1cccc(-c2c(C(=O)N/N=C/c3ccc(C)o3)nnn2-c2nonc2N)c1,0.33,0.73
COc1ccc(CNC(=O)C2CSC(=O)C2)cc1 (stereo unspecified),0.93,-1
COc1ccc(-n2nnc3c(=O)n(CC(=O)N4CCCC4)cnc32)cc1,1.3,-0.12
CCOc1ccc(OCC)c(S(=O)(=O)NCc2ccccn2)c1,0.13,-0.73
COc1cccc(CNC(=O)C2CCN(S(=O)(=O)c3cccs3)CC2)c1,1.3,-0.1
CCN(CC)CCSc1nc2ccc(OC)cc2[nH]1,1.9,0.89
Cc1nnc(SCC(=O)Nc2ccc3c(c2)OCO3)s1,0.69,0.87
CN1CCN(C(=O)c2ccc(-c3cccs3)s2)CC1,0.03,-1
O=CN1CCN(C(=O)c2cc3cc(Cl)ccc3[nH]2)CC1,0.36,-0.25
CC(=O)Nc1ccc(NC(=O)CSc2nnc(NC(=O)c3ccc(Br)o3)s2)cc1,0.06,-0.06
Cc1ccccc1OCC(=O)N(Cc1cccc(F)c1)C1CCS(=O)(=O)C1 (stereo unspecified),0.02,-0.19

Gathered by group: the entries above with an NH in an aromatic ring.
structure,KCNQ2 pot,KCNQ2 pot baseline
CCN(CC)CCSc1nc2ccc(OC)cc2[nH]1,1.9,0.89
O=CN1CCN(C(=O)c2cc3cc(Cl)ccc3[nH]2)CC1,0.36,-0.25

(cont.)
structure,KCNQ2 pot,KCNQ2 pot baseline
Cc1ccc2cc(/C=N/NC(=O)[C@H](C)NC(=O)OC(C)(C)C)c(Cl)nc2c1,0.62,-1.4
C/C=C/COC(=O)c1[nH]c2c(c1C)C(=O)CC(c1ccco1)C2 (stereo unspecified),0.04,0.22
CC(NC(=O)C1CCC(CNc2c(N3CCCCC3)c(=O)c2=O)CC1)c1ccccc1 (stereo unspecified),1.2,-0.51
Cc1ccnc(NS(=O)(=O)c2ccc3ccccc3c2)n1,0.19,-0.01
COc1ccc(-n2ncc3c(NCc4ccco4)ncnc32)cc1,0.25,-0.15
COc1cccc(/C=N/NC(=O)CNC(=O)COc2ccccc2)c1O,1.2,-0.21
O=C(N/N=C/c1cccc(O)c1)c1ccc(COc2ccccc2Br)cc1,3.1,-2.1
O=C(CSCc1c(Cl)cccc1Cl)NN=C1CCCC1,1.5,-1.2
CCc1ccc(NC(=O)Cc2ccc(OC)cc2)cc1,2.9,-1.1
CC(=O)c1ccc(OCCCC(=O)Nc2cc(Cl)ccc2-n2cncn2)cc1,0.59,0

(cont.)
structure,KCNQ2 pot,KCNQ2 pot baseline
COc1ccc(-n2nc(C(=O)NCC(=O)N3CCOCC3)c3ccccc3c2=O)cc1OC,0.63,-3.5
Cc1ccc(C(=O)N2N=C(c3ccc(NS(C)(=O)=O)cc3)CC2c2cccs2)cc1 (stereo unspecified),1.2,1.5
CCCCOC(=O)Cn1c(=N)n(CCN(CC)CC)c2ccccc21,1.1,-1
COc1ccccc1/C=C/C(=O)NCC(=O)N/N=C(/C)c1ccc(Cl)cc1,0.86,-0.12
COc1ccccc1CNC(=O)COC(=O)Cc1ccc(Cl)cc1,1,-0.38
COc1cc2c(cc1OC)CN(C(=O)CCNS(=O)(=O)c1ccccc1F)CC2,0.47,0
Cc1ccc2oc(-c3cccc(NC(=S)NC(=O)c4cccs4)c3)nc2c1,2,-0.58
O=C1OC2(CCCCC2)OC(=O)C1=CNc1ccc2c(c1)OCO2,0.23,0.41
CC(C)CCN1C(=O)c2ccc(C(=O)Nc3ccc(O)cc3C(=O)O)cc2C1=O,0.29,2
COc1ccc(N2CCN(C(=O)CC(C)S(=O)(=O)c3ccc4c(c3)NC(=O)CO4)CC2)cc1 (stereo unspecified),0.56,-0.04

Later entries
Each structure is followed by: KCNQ2 pot, KCNQ2 pot baseline
OCC1(Cc2ccccc2)CCN(CCCC2CCCC2)CC1
 : 3.1, -0.36
COc1ccc(CCNC(=O)c2ccc(CNS(=O)(=O)c3cccc(Cl)c3)cc2)cc1OC
 : 0.64, 1.7
O=C(NC(c1ccccc1)c1c(O)ccc2ccccc12)c1ccccc1Cl (stereo unspecified)
 : 1, 0.01
CCOC(=O)CSc1nc2cccnc2n1-c1ccc(F)cc1
 : 0.64, -0.88
CCOC(=O)C1=C(COC(=O)Cc2ccc(Br)cc2)NC(=O)NC1C (stereo unspecified)
 : 0.06, -0.43
Cc1ccc(SCc2[nH]nc3c2C2(C(=O)N(C)c4ccccc42)C(C#N)=C(N)O3)cc1 (stereo unspecified)
 : 1.9, -1.2
COCCNC(=O)C(c1cccs1)N(Cc1cccs1)C(=O)Cn1nnc2ccccc21 (stereo unspecified)
 : 2, -0.12
O=C(NC(=S)Nc1ccc([N+](=O)[O-])cc1O)C1CCCCC1
 : 0.1, -0.44
Cc1cc(Br)ccc1OCC(=O)NNC(=O)Cc1ccccc1
 : 0.69, 0.02
Oc1c(CN2CCN(c3ccc(F)cc3)CC2)cc(Cl)c2cccnc12
 : 0.02, -0.02
O=C(Nc1cccc(NC(=O)c2ccccc2F)c1)c1ccccc1
 : 1.1, 0.72
CCOC(=O)N1CCN(C(=O)CCc2nc3sc4c(c3c(=O)[nH]2)CCCC4)CC1
 : 0.86, 0.15
CC1(C)CC(NS(=O)(=O)OCC(Cl)(Cl)Cl)c2cc(C#N)ccc2O1 (stereo unspecified)
 : 0.76, -0.43
COc1ccccc1NC(=S)N1CCNC(=O)C1CC(=O)Nc1cccc(C)c1 (stereo unspecified)
 : 0.94, 0.22
CC(=O)Nc1nc2ccc(C(=O)NC3CCCCC3)cc2s1
 : 1, -1.3
CC(=O)NCCC(=O)NCC1(N(C)Cc2ccccc2)Cc2ccccc2C1
 : 0.8, 0.69
COCCn1nnnc1C(c1cc2cc(OC)c(OC)cc2[nH]c1=O)N1CCN(c2ccc(O)cc2)CC1 (stereo unspecified)
 : 0.17, -0.27
O=C1NC(=S)SC1=C1CCCC1
 : 3.8, 0.92
COc1ccc(C2Nc3ccccc3C(=O)N2Cc2ccccc2)cc1COc1ccccn1 (stereo unspecified)
 : 0.58, -1.3
Cc1cc(=O)n(-c2ccc(O)cc2)[nH]1
 : 1.6, 0.25
Cc1ccccc1Oc1nc(-c2ccccn2)nc2ccccc12
 : 0.86, 0.54
Cc1cc(NC(=O)c2noc3c2CCCCC3)no1
 : 0.4, -0.44
CCOC(=O)C(NS(=O)(=O)c1ccc(Br)cc1)C(C)C (stereo unspecified)
 : 0.59, -0.02
NC(=O)c1cccn1Cc1cccc(Cl)c1
 : 0.41, -0.23
CC(C)Cc1nnc(NC(=O)CCC(=O)N2CCN(S(=O)(=O)c3ccccc3)CC2)s1
 : 2.2, -1.6
COc1ccc(S(=O)(=O)NCC2CCCN(Cc3cccnc3)C2)cc1 (stereo unspecified)
 : 0.2, 0.87
Cc1cccc(-n2ncc3c2CCCC3NC(=O)CCN2Cc3ccccc3C2=O)c1C (stereo unspecified)
 : 0.09, -0.06
COc1ccc(C2(CCN=Cc3ccc(N(C)C)cc3)CCOC(C)(C)C2)cc1 (stereo unspecified)
 : 0.4, 0.21
CCc1nnc(NC(=O)CCC(=O)N2CCN(Cc3ccc(Cl)cc3)CC2)s1
 : 0.75, -1.2
O=[N+]([O-])c1cccc(-n2nnnc2CNCc2ccccc2)c1
 : 0.07, 1.1

(next part)
Each structure is followed by: KCNQ2 pot, KCNQ2 pot baseline
N#Cc1nc(-c2ccccc2F)oc1NCc1ccccc1
 : 0.16, 0.64
Cc1cccc(-c2oc3ccc(-c4ccc5c(c4)OCO5)cc3c2/C=C/c2ccc(N)cc2)c1
 : 0.31, -0.17
COc1cc2[nH]c(C(=O)N3CCc4ccccc43)cc2c(OC)c1OC
 : 0.8, -1.2
O=C(O)c1cn(-c2ccccc2)c(=O)c2ccccc12
 : 1.9, -0.69
O=C(Nc1nccs1)c1ccc(Cl)c(S(=O)(=O)N2CCOCC2)c1
 : 0.06, 0.04
CC1(C)Cc2c(sc3nc(-c4cc5ccccc5o4)n(N)c(=O)c23)CO1
 : 0.37, 0.6
O=C(NCCCN1CCOCC1)c1sc2ccccc2c1Cl
 : 0.7, 0.53
Cc1cc(C)nc(/N=C2\NC(=O)CC(C(=O)O)N2c2ccc(F)c(Cl)c2)n1 (stereo unspecified)
 : 1.7, -0.01
Cc1nn(CC(=O)NCC2CCCO2)c(C)c1[N+](=O)[O-] (stereo unspecified)
 : 0.24, -0.02
CCOC(=O)COc1ccc2c3c(c(=O)oc2c1C)CCC3
 : 0.81, -0.05
CCn1c(=O)c(C(=O)NNC(=O)c2ccccc2F)c(O)c2ccccc21
 : 0.48, 0.01
CC(C)/C=N/NC(=O)c1cccc(N2CCCC2=O)c1
 : 2, -1.5
Cc1ccc(Cl)cc1NC(=O)COc1ccccc1
 : 0.31, 0.21
Cn1ncc([N+](=O)[O-])c1C(=O)Nc1ccc(Cl)cc1
 : 1.3, -2.3
COc1cc2c(cc1OC)CN(CCC(C)c1ccc(Cl)cc1)CC2 (stereo unspecified)
 : 0.03, 1.7
CCOC(=O)N1CCC(N2Cc3cccc(C(=O)NCc4ccccc4OC)c3C2=O)CC1
 : 0.92, -2.7
COc1cc(C2C(C(=O)c3cccs3)=C(O)C(=O)N2CCN2CCOCC2)cc(OC)c1OC (stereo unspecified)
 : 0.05, 0.36
CCn1c(Cc2ccccc2)nnc1SCC(=O)Nc1ccc(N2CCOCC2)c(Cl)c1
 : 0.5, 2.7
O=C(Nc1cccc(C(F)(F)F)c1)c1cnc2n(c1=O)CCS2
 : 1.1, -0.13
CCCc1nnc(NC(=O)C2CCN(C(=O)C3CC(=O)N(c4ccc(C)cc4)C3)CC2)s1 (stereo unspecified)
 : 0.01, -0.02
COc1ccccc1N(Cc1ccccc1)S(=O)(=O)c1cccc(C(=O)O)c1
 : 0.13, -0.3
CC(C)(CCl)C(=O)Nc1ccc(Sc2ccc(F)cc2)cc1
 : 2.6, 0.01
COc1cccc(CN=CC2=C(O)CC(C)(C)CC2=O)c1OC
 : 1.4, -0.71
CCOC(=O)C1(CCOC)CCN(Cc2ccc3nonc3c2)CC1
 : 1.8, -0.4
Cc1c(Nc2nc3ccccc3nc2N2CCN(c3ccccc3)CC2)c(=O)n(-c2ccccc2)n1C
 : 0.36, 0.81
O=C(NCc1ccc2c(c1)OCO2)c1ccc2c(c1)C(=O)N(CC1CCCO1)C2=O (stereo unspecified)
 : 1.2, -2.8
COc1ccccc1-c1noc(-c2ccco2)n1
 : 2.2, 0.38
O=C(COC(=O)CNC(=O)c1cccc([N+](=O)[O-])c1)NCc1ccco1
 : 0.47, 0.16
Cc1ccc(S(=O)(=O)N2CCC(C(=O)N[C@@H](C)C(=O)NC3CCCCC3)CC2)cc1
 : 2, -1.3
C=CCN=C1CC(C)(C)CC(=O)/C1=C(\O)CCCN1C(=O)c2ccccc2C1=O
 : 0.56, -0.85

(list continues)
Each structure is followed by: KCNQ2 pot, KCNQ2 pot baseline
O=C(Nc1ccc(F)c(Cl)c1)C1CCCC1
 : 2.2, -0.38
CCn1c2ccccc2c2cc(NC(=O)C3CCN(S(=O)(=O)c4cccs4)CC3)ccc21
 : 1.2, -0.56
Cc1ccc(Nc2nc(=O)c3cccnc3s2)cc1
 : 0.77, 0.27
Nc1nc(N)c2c(n1)CCCC2
 : 0.81, -0.5
N/C(=N\OC(=O)Nc1ccccc1)c1cccc(C(F)(F)F)c1
 : 11*, 0.78*
N#Cc1ccccc1Oc1ccccc1C=O
 : 0.23, -0.92
O=C(NC(=S)NC1CCS(=O)(=O)C1)c1ccccc1F (stereo unspecified)
 : 1.7, -0.39
COc1ccccc1CNC(=O)OCc1nccnc1C(=O)Nc1ccc(Br)cn1
 : 0.65, -0.81
CCN1CCN(C(=O)CN(CCc2ccccc2)S(C)(=O)=O)CC1
 : 0.2, 1.2

Bioassay records (PubChem BioAssay)
